# CSC inhib: cancer stem cell inhibition | cancer stem cell-like cells viability, luminescence | inhibition, % at 7.5 µM | 300,000 tested, 1.1% active | AID 2717;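 active means mean at 75% or more and at least half the replicates too; inconclusive means mean and replicates disagree; tested in HMLE shEcad cells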;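 further: 0% = median of negative and 100% = median of positive control wells; the first replicate is given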
# Env fusion inh: blocks HIV Env-driven cell-cell fusion. HeLa-JRFL Env/CEM21 cell fusion, luciferase. inhibition, % at 12.3 µM. 360,000 tested, 1.1% active. AID 651610;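 active means mean replicate inhibition score of at least 50 and every replicate individually at or above 50; inconclusive means only one of the two criteria met; inactive means mean below 50 and not all replicates reaching 50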;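 further: 0% = plate neutral controls and 100% = maraviroc near 300 nM; one replicate is shown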
# MT1-MMP act inh: MT1-MMP (human) activation inhibition; P50281; HT1080 RFP-PRO-GFP cells, GFP/RFP ratio fluorescence, overnight; percent of plate control window, DMSO zero; GFP/RFP ratio change, % at 20 µM; 360,000 tested, 0.061% active; AID 651647;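 active means GFP/RFP ratio change of at least 30% with cell ATP level not reduced by more than half and red fluorescence within 50% of control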; further: strong numbers were not always called active
#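 Material – HT1080 RFP-PRO-GFP cells · Control set – DMSO wells and RFP-L50D-GFP cells · Incubation – overnight cell settling, then overnight compound exposure, 37 °C, 5% CO2 · Compound dosing – single-point 20 µM compound, 1% DMSO · Read-out – GFP/RFP fluorescence ratio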
# Rce1 inhib: yeast Ras-converting enzyme inhibition; Q03530; yeast membranes, quenched prenylated peptide cleavage fluorescence; calls only; 290,000 tested, 0.27% active;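 active means fall in fluorescence gain of 50% or more versus controls, with final raw signal at or below 3038400; inconclusive means same 50% fall but final raw signal above 3038400; inactive means fall in fluorescence gain under 50%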;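 further: plate controls were neutral control wells for no effect and wells lacking membranes for full effect; tested at 10 µM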
# PABP FP inh: blocks human PABP binding to poly(A) RNA; P11940; fluorescence polarization; inhibition, % at 35 µM; 290,000 tested, 1% active; AID 2014;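 active means 50% or more with normal probe brightness, or confirmed in later tests; inconclusive means above 50% with abnormal brightness, or retests that disagree; inactive means below 50% or failed in later tests; about a fifth of its hits are not listed in these tables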;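 further: calls also rest on retests at 20 µM and on dose response follow-up; controls were probe without protein and protein plus probe with vehicle; some compounds called inactive have numbers as strong as hits; many hits fall short of the cut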
# Target sequence (P11940 whole entry, looked up): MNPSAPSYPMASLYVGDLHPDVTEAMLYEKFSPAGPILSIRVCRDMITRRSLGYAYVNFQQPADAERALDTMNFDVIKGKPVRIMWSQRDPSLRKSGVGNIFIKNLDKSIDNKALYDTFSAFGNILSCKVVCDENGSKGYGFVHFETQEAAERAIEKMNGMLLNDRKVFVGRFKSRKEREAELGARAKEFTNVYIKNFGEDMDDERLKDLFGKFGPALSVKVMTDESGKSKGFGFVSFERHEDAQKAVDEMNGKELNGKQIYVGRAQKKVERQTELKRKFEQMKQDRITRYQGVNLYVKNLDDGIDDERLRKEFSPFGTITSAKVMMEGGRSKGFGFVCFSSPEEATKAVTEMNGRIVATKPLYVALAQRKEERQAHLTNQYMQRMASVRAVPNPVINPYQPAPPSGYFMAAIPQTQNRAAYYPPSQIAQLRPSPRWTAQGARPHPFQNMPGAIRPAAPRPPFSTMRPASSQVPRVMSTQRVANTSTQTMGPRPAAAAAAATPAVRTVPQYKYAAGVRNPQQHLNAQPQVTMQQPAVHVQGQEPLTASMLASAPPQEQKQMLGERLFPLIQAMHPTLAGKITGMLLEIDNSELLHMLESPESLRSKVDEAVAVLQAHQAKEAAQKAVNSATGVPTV
# eIF4H FP inh: inhibitors of RNA binding by human eIF4H. Q15056. eIF4H fluorescence polarization binding assay. inhibition, % at 35 µM. 290,000 tested, 0.94% active;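 active means 50% or more with normal probe brightness, or confirmed in later tests; inconclusive means above 50% with abnormal brightness, or retests that disagree; inactive means below 50% or failed in later tests; about a fifth of its hits are not listed in these tables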;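 further: calls also rest on retests at 20 µM and on dose response follow-up; 0% = protein and probe with vehicle and 100% = probe without protein; strong numbers were not always called active; many hits fall short of the cut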
# Yeast UUG start: alters start codon recognition fidelity in yeast; S. cerevisiae UUG-firefly luciferase reporter, luminescence/redox ratio; activity score, % at 18.7 µM; 350,000 tested, 0.13% active;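 active means replicate mean at a twofold rise or more, about +100% in these data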;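 further: firefly luciferase made from a UUG start codon reports start codon fidelity; reporter light over untreated wells divided by growth signal over untreated wells; some hits fall short of that in this replicate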
# eIF4H FP inh retest: recorded beside eIF4H FP inh, whose call it bears; inhibition, %; compound at 20 µM; confirmation average;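 mean of two retest wells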
# PABP FP inh retest: also measured in PABP FP inh; calls as there; inhibition, %; compound at 20 µM; confirmation repeats;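 mean of two retest wells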
# MT1-MMP act inh RFP: further read-out of MT1-MMP act inh, marked with its call; RFP signal change, %; measured here: RFP expression control read;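 0 = vehicle wells; hits needed this value within 50% of zero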
# An asterisk follows results filed as active; i = inactive; ? = inconclusive; · = not tested or not shown.
SMILES,CSC inhib,Env fusion inh,MT1-MMP act inh,MT1-MMP act inh RFP,Rce1 inhib,PABP FP inh,eIF4H FP inh,Yeast UUG start,others
COc1ccc(NC(=O)C(CCSC)NC(N)=O)cc1Cl (configuration not stated),-2,24,0,2,i,-5,-7,·,
CCOC(=O)C1CCN(S(=O)(=O)c2ccc3[nH]c(=O)ccc3c2)CC1,7,9,3,4,i,-1,-6,-9,
CCOc1ccc(C)cc1S(=O)(=O)n1ccc(C)n1,·,·,3,3,i,-6,-6,-15,
CCN(CC)C(=O)COn1c(SCC(=O)N(CC)CC)nc2ccccc2c1=O,·,-9,10,0,·,3,-4,-8,
O=C(NCc1nnnn1-c1ccc(F)c(F)c1)C(=O)c1c[nH]c2ccccc12,-12,-5,4,-2,i,·,·,-6,
CCNC(=S)NCc1ccc2c(c1)OCO2,-14,·,-4,-2,i,1,2,·,
CC(=O)N(Cc1ccccc1C)c1cccc(C)c1C,9,12,-1,-1,i,5,-4,-7,
CCN(CC)CCCN(CC(=O)N(C)Cc1ccccc1)C(=O)c1ccc([N+](=O)[O-])cc1,17,-26,0,6,i,9,11,5,
O=C(C[C@@H]1C[C@H]2c3cc(NC(=O)c4cccnc4)ccc3O[C@H]2[C@H](CO)O1)NCc1ccc(Oc2ccccc2)cc1,·,-58,-4,-22,·,·,·,-10,
CCC(=O)Nc1nc(C)c(-c2csc(Nc3ccc(C(=O)O)cc3)n2)s1,·,-10,0,7,i,6,7,-3,
Cc1c(C(=O)N2CCCC2(C)C(=O)NCC(C)C)oc2ccccc12 (configuration not stated),·,-1,6,4,·,·,·,-6,
O=C(CCCN1CCC(O)(c2ccc(Br)cc2)CC1)c1ccc(F)cc1,7,4,2,-3,·,·,·,-6,
COc1ccc(CC(NC(C)=O)C(=O)N2CCN(C(=O)N(C(C)C)C(C)C)CC2)cc1 (configuration not stated),-10,·,7,4,i,6,-12,-4,
O=C(Cn1c(=O)oc2cccnc21)Nc1ccccc1Oc1ccc(Cl)cc1Cl,-14,·,·,·,i,4,-11,·,
CCSc1nc2c([nH]1)c(=O)n(C)c(=S)n2C,·,-4,4,0,·,·,·,-10,
CCOC(=O)C1CCN(C(=O)CCNS(=O)(=O)c2ccc(C)cc2)CC1,·,5,-2,1,·,·,·,-7,
CCc1ccc(CNC(=O)c2nn(C)c3c2CS(=O)(=O)c2ccccc2-3)cc1,-4,12,2,0,i,-3,-2,-10,
CCOc1ccc(C(=O)N2CCCC(c3nc(-c4ccc(C)o4)no3)C2)cc1 (configuration not stated),-14,7,1,-5,i,-1,4,-12,
CC(C)(C)c1ccc(C(=O)NC(=S)NNC(=O)c2cccs2)cc1,38,-5,-8,-12,i,-5,15,-42,
COc1ccc(NC(=O)CNS(=O)(=O)c2ccc3nc(C)sc3c2)c(OC)c1,-11,·,0,-1,i,4,-1,·,
Cc1cc(C)c(NC(=O)CSc2nnc(SCC(=O)Nc3c(C)cc(C)cc3C)n2N)c(C)c1,-9,·,2,5,i,10,3,4,
CCOc1cccc(/C=N/NC(=O)c2cccnc2)c1O,59,10,5,-2,i,0,3,-10,
CSc1nnc(-c2cc(-c3ccc(C)cc3)nc3ccccc23)o1,-12,-1,-2,1,i,13,-2,-12,
CCOc1ccc(S(=O)(=O)NCC2(N3CCCCC3)CCCCC2)cc1,·,-4,4,4,·,·,·,-19,
Cc1ccc(C2=NN(C(=O)CSc3nc(N)cc(N)n3)C(c3ccco3)C2)cc1 (configuration not stated),-13,8,0,0,i,7,-1,-27,
CC(CNCc1ccc2c(c1)OCO2)NCc1ccc2c(c1)OCO2 (configuration not stated),·,6,3,2,i,1,-4,-10,
COc1cc(C(=O)OCC(=O)NC23CC4CC(CC(C4)C2)C3)cc(OC)c1OC,·,30,0,-2,·,·,·,-4,
Cc1ccc(-c2cnc(C3CC3)o2)cc1S(=O)(=O)Nc1ccccc1,·,·,-2,-11,i,11,1,-22,
COc1ccc(OC)c(CNc2ccc3c(c2)CCC3)c1,-10,-10,-12,-1,i,-2,-24,-15,
CCCCSc1nc(C)cc(SCC(=O)N/N=C/c2ccccc2)n1,-12,5,-2,-8,i,-10,-8,·,
CN(C#N)c1nccc(-c2cccs2)n1,4,-45,0,-3,i,-6,2,-3,
COc1ccc(C(=O)c2ccc(N3CCOCC3)cc2)c(OC)c1,2,-21,6,1,i,0,-1,3,
CC(C)(C)C(=O)/C=c1\s/c(=C\c2ccc(-c3ccc([N+](=O)[O-])cc3)o2)c(=O)n1CC(=O)NC(N)=O,-6,5,-119,9,i,-18,?,27,
CNC(=O)NC(=O)C(C)OC(=O)c1cc2c(s1)CCCCC2 (configuration not stated),4,-25,-5,-2,i,-6,0,·,
CCOC(=O)c1ccc(CN(Cc2ccccc2)S(=O)(=O)c2cccc([N+](=O)[O-])c2)cc1,-8,4,-3,-3,i,-3,-7,-14,
Clc1ccccc1CSc1ncn(-c2ccccc2)n1,10,-68,3,8,i,-1,-10,-19,
COc1ccc(C(=O)CSc2nnc(CNc3ccc(C)cc3C)o2)cc1,2,?,5,-1,i,4,3,-2,
N#Cc1c(NC(=O)CSc2nc(-c3ccco3)cc(C(F)(F)F)n2)sc2c1CCCC2,16,·,-3,0,·,-7,1,-24,
COc1ccc(Cn2c(SCc3ccc(C)cc3)nc3cc(OC)c(OC)cc3c2=N)cc1Cl,103*,122*,-54,-38,i,6,-9,-4,
CCc1ccccc1NC(=O)C1=CC(c2cccs2)=NS(=O)(=O)N1C,·,18,0,-2,i,-8,-16,-8,
c1ccc2c(c1)nc(NCC1CCCO1)c1nnnn12 (configuration not stated),-6,13,-8,2,i,-7,70,-11,eIF4H FP inh retest=-12;PABP FP inh retest=1
COc1ccc(SC[C@H](Cc2ccccc2)N2CC[C@@H](C)CCC2=O)cc1,6,17,-4,-10,·,·,·,4,
CCCCc1nnc(NC(=O)c2ccc3[nH]c(=O)c(=O)[nH]c3c2)s1,11,6,4,6,i,2,5,-10,
S=C(NCc1ccco1)N1CCN(c2nc(-c3ccccc3)cs2)CC1,15,32,0,-5,i,-12,-11,·,
COc1cc(C(=S)N2CCC(C)CC2)ccc1O,-16,-5,10,4,i,14,6,-37,
NC(=O)CSCc1nc2ccccc2s1,2,·,-6,-2,i,54*,55*,-14,
COc1ccc(-c2nnc(SCC(=O)NCc3ccco3)n2C)cc1,-15,-31,2,3,i,1,-2,-9,
ClC(/C=N/n1cnnc1)=C/c1ccccc1,4,-22,2,0,i,2,2,-18,
COc1ccc(OCC(O)Cn2cnc(-c3ccc(Br)cc3)c2)cc1 (configuration not stated),0,·,12,0,i,-6,-5,-15,
O=C(Cn1cnc2cc([N+](=O)[O-])ccc2c1=O)NC(=O)NCc1ccccc1,3,-12,1,-2,i,12,-11,-18,
O=C(Nc1cccc(S(=O)(=O)C(F)F)c1)c1ccc(S(=O)(=O)N2CCCC2)cc1,6,-3,2,-9,i,1,-8,-12,
CCOC(=O)C1C(=O)C=C(C)C(C(=O)OCC)C1c1ccc(OC)cc1 (configuration not stated),-2,8,-7,-5,i,-2,0,-5,
Cc1ccc(C2=NOC(=O)/C2=C\c2ccc(C)o2)cc1,63,0,-17,7,i,2,4,-17,
CCCc1nnc(NC(=O)CCC(=O)N2CCN(C3CCCC3)CC2)s1,0,2,-2,3,i,-11,-12,-34,
COc1ccc(OC)c2sc(NC(=O)C(C)C)nc12,-7,6,-1,0,i,1,2,4,
COC(=O)c1oc2ccc(OC)cc2c1N,-1,-221,2,1,i,-1,2,27,
Cc1cc(C)c2c(N)c(C(=O)Nc3ccccc3F)sc2n1,-11,-52,-2,-7,i,8,1,-20,
O=S(=O)(c1ccc(Br)s1)N1CCN(Cc2ccc3c(c2)OCO3)CC1,18,·,6,4,i,15,-11,·,
O=C(NCC(c1ccco1)N1CCN(c2ccccc2F)CC1)c1ccc2c(c1)OCO2 (configuration not stated),-13,-49,0,-5,i,·,·,6,
COC(=O)[C@@]1(Cc2ccc(F)cc2)[C@H]2c3cc(C(=O)N4CCCC4)n(CCCNc4ncc(C(F)(F)F)cc4Cl)c3C[C@H]2CN1C(=O)c1ccccc1,26,·,-38,-25,i,-1,-11,-7,
# Next section:
SMILES,CSC inhib,Env fusion inh,MT1-MMP act inh,MT1-MMP act inh RFP,Rce1 inhib,PABP FP inh,eIF4H FP inh,Yeast UUG start,others
Cn1ccsc1=NC(=O)c1ccc(Cl)cc1,-10,-19,-1,2,i,-5,-5,·,
Cc1nnc(C)n1/N=C/c1cc(Br)cc(Br)c1O,-14,·,0,-2,i,22,13,-37,
COc1cc(COC(=O)c2cnc(C)cn2)c(OC)cc1Br,-9,-30,0,-2,i,0,1,-11,
NNC(=O)c1ccc(Cn2cc(Br)c(N)n2)cc1,-6,-2,-2,4,i,-8,2,·,
O=C(CC12CC3CC(CC(Br)(C3)C1)C2)Nc1cccc(S(=O)(=O)NC2=NCCC2)c1,-16,7,12,1,i,-9,-12,-9,
COC(=O)CCCCCCCCC(O)CN1CCCCC1 (configuration not stated),-2,-10,-1,4,i,12,7,-9,
O=C(COc1ccc(Br)cc1Br)NC1CCCC1,28,-52,4,-22,i,-1,-14,·,
COc1ccc(NC(=O)COC(=O)c2ccc(-n3cnnn3)cc2)c([N+](=O)[O-])c1,·,-11,-1,-1,·,·,·,-4,
COc1ccc(S(=O)(=O)N2CCN(C)CC2)cc1C(=O)Nc1ccccc1,-15,-4,-1,2,i,-12,-13,-19,
COC(=O)CCNc1ccc2c(c1)OCCO2,4,·,4,-4,i,-2,-1,-42,
Cc1nc2nc(-c3cccs3)[nH]c2cc1Br,12,-68,-8,-8,i,·,·,-8,
OC(CCN1CCC2CCC(C2)C1)c1ccc(Br)cc1 (configuration not stated),·,-12,1,1,·,·,·,-12,
CCC(Oc1ccccc1)C(=O)Nc1ccc(S(=O)(=O)Nc2cc(C)on2)cc1 (configuration not stated),·,5,0,1,i,-6,-8,-10,
CC(C)N(CC#CCC(O)(c1ccccc1)C1CCCC1)CCO (configuration not stated),4,10,-4,-1,i,0,20,·,
CCOC(=O)N(C)c1c(CC)nc2c(OCc3cc(Cl)cc(Cl)c3)cccn12,·,56*,-1,-8,·,·,·,-15,
CCOC(=O)C1CCN(S(=O)(=O)CCNC(=O)c2ccccc2)CC1,-3,-1,4,5,i,·,·,-2,
CCCCn1c(N)c(N(CCC(C)C)C(=O)COC(=O)c2ccc(CC)cc2)c(=O)[nH]c1=O,·,-17,-28,-20,·,·,·,-3,
Cc1nc(NC(=O)CSc2cc(C)c3ccccc3n2)c(Cl)cc1Cl,·,4,0,0,i,2,-7,·,
O=C(O)CSCc1nc2cccnc2n1C1CCCCC1,-15,1,-8,-1,i,7,-5,-13,
C=CCNC(=O)c1ccccc1NS(=O)(=O)c1ccc(OC)c(C(=O)N2CCOCC2)c1,-6,4,-2,1,i,-6,11,-9,
O=C(/C=C/NNC(=O)c1ccc(Cl)cc1)c1ccccc1,14,23,7,1,i,-20,0,·,
COc1ccc(S(=O)(=O)Nc2nccs2)cc1OC,·,9,-2,-1,i,8,5,·,
Cc1cc(NS(=O)(=O)c2ccc(NC(=O)/C=C/c3ccc(Br)cc3)cc2)no1,-9,-13,7,-5,i,0,-8,-4,
COc1cc(/C=N/n2c(-c3n[nH]c4c3CCC4)n[nH]c2=S)cc(OC)c1O,-5,-2,12,6,i,7,-4,·,

# Screening results as filed in PubChem BioAssay.

# Not all compounds are listed, so the mix of outcomes need not match the whole.
